Assay outcomes deposited in PubChem by several laboratories.
UCH37 inh: inhibitors of human deubiquitinating enzyme UCH37; Q9Y5K5; purified proteasome/UCH37, Ub-AMC cleavage fluorescence; inhibition, % (concentration not given with the values); 330,000 compounds, 0.33% hits;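 active = mean of two replicates above 20%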;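 also: 0% = compound-free wells with enzyme and 100% = wells lacking proteasome; stock transfer was 100 nL into about 20 µL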
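Reagent: Ub-AMC substrate; assay system: Proteasome-associated human UCH37 deubiquitinase; controls: no-proteasome and no-compound wells; read-out: % inhibition of Ub-AMC cleavage fluorescence; timing: 30 min preincubation with enzyme, 25 min cleavage at room temperature; signal: AMC fluorescence from Ub-AMC cleavage, excitation 355 nm, emission 460 nm; buffer or medium: Tris-HCl pH 7.4 plus ovalbumin, ATP-MgCl2, DTT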
rRNA inh HTS: inhibits bacterial ribosomal RNA function over humanized ribosomes; E. coli WT GFP vs humanized-ribosome RFP mutants, fluorescence, 24 h; hits give low values; DMSO median 0, no signal -100; GFP signal change (wild-type ribosome), % (concentration not given with the values); 350,000 compounds, 1.6% hits; AID 720706;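 active = significant combined selectivity score with lowered wild-type GFP, culture density cut under 30%, mutant RFP and density less affected; inactive = any of these conditions unmet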; also: one replicate is shown; some compounds called inactive have numbers as strong as hits
HNF4A DNA FP: change in binding of human HNF4 alpha to DNA | 360,000 compounds, 0.3% hits | activity change, % at 10 µM | HNF4a-FITC DNA binding, fluorescence polarization, 1 h; in the data active = activity change above about 30%, passing the limit was not always enough;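 also: controls were the assay level and a saturating level of protein; the project sought stronger binding though the title names inhibitors; some compounds called inactive have numbers as strong as hits; positive values seem to mean higher polarization but the record does not say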
Target sequence (P41235 whole entry, looked up): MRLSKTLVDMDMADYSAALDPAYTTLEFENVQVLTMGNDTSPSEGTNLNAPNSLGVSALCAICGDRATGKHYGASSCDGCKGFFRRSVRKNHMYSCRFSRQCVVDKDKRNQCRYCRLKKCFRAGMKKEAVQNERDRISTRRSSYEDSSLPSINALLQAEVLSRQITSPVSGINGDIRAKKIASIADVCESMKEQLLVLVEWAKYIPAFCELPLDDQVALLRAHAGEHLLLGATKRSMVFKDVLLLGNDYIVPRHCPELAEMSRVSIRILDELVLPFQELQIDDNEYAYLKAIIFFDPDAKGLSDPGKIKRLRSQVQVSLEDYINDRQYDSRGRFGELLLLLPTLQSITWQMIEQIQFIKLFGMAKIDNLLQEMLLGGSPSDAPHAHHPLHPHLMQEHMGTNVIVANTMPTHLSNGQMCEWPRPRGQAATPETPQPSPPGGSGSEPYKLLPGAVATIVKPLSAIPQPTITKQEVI
ALR H2O2 inh: human ALR oxidase inhibition via reduced H2O2. 290,000 compounds, 3.8% hits. P55789. purified ALR, DTT oxidation, H2O2 HRP-luminol luminescence. inhibition, % (concentration not given with the values);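 active = mean and each replicate at 75% or more; inconclusive = only one of the two met; inactive = neither met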;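 also: stock transfer was 7.5 nL into about 7.5 µL; 0% = neutral wells and 100% = wells with inactivated enzyme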
E coli growth: blocks Escherichia coli growth | OD600, 23 h; hits give low values | 330,000 compounds, 0.21% hits | OD600 absorbance (concentration not given with the values);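 active = OD600 absorbance below the run mean of sample wells minus 3.6 SD, in any replicate, cut at about 0.56 in these data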;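 also: stock transfer was 300 nL into about 60 µL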
FGF22 binding: FGF22 (human) thermal shift binding | Q9HCT0 | recombinant FGF22 thermal shift, SYPRO orange fluorescence; percent of sucrose octasulfate shift, DMSO zero | calls only at 9.99 µM | 340,000 compounds, 1.5% hits;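 active = melting point raised past a set limit in the mean and every replicate; inconclusive = no clear call; three in four hits are not shown here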
Target sequence (Q9HCT0 whole entry, looked up): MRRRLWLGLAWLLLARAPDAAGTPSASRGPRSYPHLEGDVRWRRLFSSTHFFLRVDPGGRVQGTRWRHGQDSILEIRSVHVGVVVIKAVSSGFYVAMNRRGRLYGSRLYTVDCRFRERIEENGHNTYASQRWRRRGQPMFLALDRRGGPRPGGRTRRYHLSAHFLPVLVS
Beta2AR agonist: activates human beta-2 adrenergic receptor causing internalization. P07550. 340,000 compounds, 0.43% hits. response, % (concentration not given with the values). Am2.2-beta2AR cells, FAP receptor internalization, flow cytometry; reference of the scale not given here. AID 504454;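 active = response above a set limit, near 3 SD of response in nonfluorescent compounds, cut at about 42% in these data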;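 also: stock transfer was 100 nL into about 11 µL; a reference agonist was the positive control; negative values mostly stem from fluorescent compounds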
Target sequence (P07550 whole entry, looked up): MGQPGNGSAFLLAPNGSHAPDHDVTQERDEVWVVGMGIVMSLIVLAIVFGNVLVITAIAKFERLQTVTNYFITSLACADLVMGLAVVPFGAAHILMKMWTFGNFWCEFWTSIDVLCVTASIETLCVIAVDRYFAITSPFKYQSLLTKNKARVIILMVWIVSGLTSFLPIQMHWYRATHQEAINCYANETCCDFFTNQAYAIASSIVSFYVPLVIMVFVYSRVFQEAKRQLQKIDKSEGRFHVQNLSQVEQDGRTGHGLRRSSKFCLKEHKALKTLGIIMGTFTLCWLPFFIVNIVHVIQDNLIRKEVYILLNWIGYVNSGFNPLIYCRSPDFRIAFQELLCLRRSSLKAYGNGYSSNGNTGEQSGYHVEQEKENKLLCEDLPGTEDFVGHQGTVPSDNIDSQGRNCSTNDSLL
rRNA inh HTS OD600: second read-out of rRNA inh HTS, no call of its own (marks repeat the call); OD600 change, %; measured here: OD600 growth;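 optical density of the mix in the first replicate; 0 = DMSO median and -100 = no signal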
rRNA inh HTS RFP: further read-out of rRNA inh HTS, marked with its call; RFP signal change, %; measured here: RFP humanized mutant strains;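 first replicate; 0 = DMSO median and -100 = no signal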
* hit, by the source's call; i = inactive; ? = inconclusive; . = not tested or not shown; & = joins results of further samples.

Sample of the layout (three entries):
Field names: A = UCH37 inh; B = rRNA inh HTS; C = rRNA inh HTS OD600; D = rRNA inh HTS RFP; E = HNF4A DNA FP; F = ALR H2O2 inh; G = E coli growth; H = FGF22 binding; I = Beta2AR agonist
> Cc1[nH]n(-c2ccccc2)c(=O)c1C=NCc1ccco1
  A: 2.1	B: .	C: .	D: .	E: .	F: -21	G: 0.66	H: .	I: .

> CCc1ccc(OCC(=O)N2CCN=C2c2ccccc2)cc1
  A: 4.1	B: .	C: .	D: .	E: -2.2	F: 0	G: 0.75	H: .	I: -1

> COc1ccccc1-c1coc2c(CN3C(C)CCCC3C)c(O)ccc2c1=O (stereo unspecified)
  A: -303	B: .	C: .	D: .	E: 3.1	F: 25	G: 0.67	H: i	I: -5

All compounds of this part, from the start:
Field names: A = UCH37 inh; B = rRNA inh HTS; C = rRNA inh HTS OD600; D = rRNA inh HTS RFP; E = HNF4A DNA FP; F = ALR H2O2 inh; G = E coli growth; H = FGF22 binding; I = Beta2AR agonist
> Cc1[nH]n(-c2ccccc2)c(=O)c1C=NCc1ccco1
  A: 2.1	B: .	C: .	D: .	E: .	F: -21	G: 0.66	H: .	I: .

> CCc1ccc(OCC(=O)N2CCN=C2c2ccccc2)cc1
  A: 4.1	B: .	C: .	D: .	E: -2.2	F: 0	G: 0.75	H: .	I: -1

> COc1ccccc1-c1coc2c(CN3C(C)CCCC3C)c(O)ccc2c1=O (stereo unspecified)
  A: -303	B: .	C: .	D: .	E: 3.1	F: 25	G: 0.67	H: i	I: -5

> CCCCNC(=O)N1CCN(c2ccccc2OC)CC1
  A: 0.8	B: .	C: .	D: .	E: 1.6	F: 44	G: 0.69	H: .	I: 0

> CCC1=NNc2cccc3c(OC)ccc1c23
  A: -6.7	B: .	C: .	D: .	E: .	F: -17	G: 0.8	H: .	I: .

> COC(=O)c1nc(NC(=O)c2ccc(Cl)cc2)n[nH]1
  A: 2.1	B: .	C: .	D: .	E: 1.5	F: -3	G: 0.72	H: .	I: 1

> CCCCNC(=O)CCn1nc(-c2ccc(C)cc2)c2ccccc2c1=O
  A: 6.0	B: 1	C: -2	D: 1.6	E: 0.8	F: -1	G: 0.7	H: i	I: 3

> O=C(Nc1ccccc1N1CCOCC1)c1ccc(F)c(S(=O)(=O)N2CCOCC2)c1
  A: -0.1	B: 18	C: 14	D: 2.0	E: -2.3	F: 6	G: 0.67	H: i	I: -15

> C=CCSc1ncccc1C(=O)NCCc1ccc(Cl)cc1
  A: 6.6	B: 12	C: 8	D: -1.1	E: 3.1	F: -1	G: 0.7	H: i	I: -3

> O=C(N1CCOCC1)C12CC3CC(C1)CC(C(=O)N1CCOCC1)(C3)C2
  A: 0.4	B: .	C: .	D: .	E: -0.1	F: -1	G: 0.7	H: .	I: -6

> Cc1ccc(NC(=O)CN2C(=O)NC(Cc3ccccc3)C2=O)c(Br)c1 (stereo unspecified)
  A: 3.1	B: -2	C: -3	D: -5.9	E: 1.1	F: -7	G: 0.72	H: i	I: 4

> CCOc1cc(C(=O)Nc2ccc(C)cc2C)ccc1OCC(=O)N1CCCCC1
  A: -0.6	B: .	C: .	D: .	E: -1.7	F: -2	G: 0.69	H: .	I: -25

> C=CCn1cccc(C(=O)Nc2ccc(OC)cc2)c1=O
  A: 8.3	B: -12	C: -7	D: 3.3	E: 1.5	F: -3	G: 0.66	H: .	I: 6

> O=C(Cc1ccc(NS(=O)(=O)c2ccc(F)cc2)cc1)NCc1ccccc1
  A: 4.9	B: .	C: .	D: .	E: -2.2	F: .	G: 0.78	H: .	I: -3

> COc1ccc(-c2cccc(NS(=O)(=O)c3cc([N+](=O)[O-])ccc3Cl)c2)nn1
  A: 5.0	B: -8	C: -10	D: 2.8	E: -1.6	F: .	G: 0.69	H: i	I: 5

> O=C(CC(=O)N/N=C/c1cccs1)NCc1ccccc1
  A: .	B: 19	C: 8	D: 2.0	E: -0.3	F: -3	G: .	H: i	I: 3

> Nc1nnc(SCC(=O)Nc2ccc(S(=O)(=O)N3CCOCC3)cc2)s1
  A: 0.7	B: 3	C: -1	D: -10.0	E: 5.2	F: 96*	G: 0.74	H: i	I: -10

> COc1ccc(C(=O)C(C)Oc2cccc(NC(=O)c3cccc([N+](=O)[O-])c3)c2)cc1 (stereo unspecified)
  A: 4.0	B: .	C: .	D: .	E: 3.9	F: -6	G: 0.7	H: .	I: 0

> CS(=O)(=O)N1CCCC(C(=O)NCCc2ccc(Cl)cc2)C1 (stereo unspecified)
  A: -0.3	B: .	C: .	D: .	E: 2.1	F: -25	G: 0.71	H: .	I: -1

> CCCCNC(=O)c1nc(-c2ccncc2)oc1-c1ccccc1
  A: .	B: 4	C: 1	D: -3.2	E: 3.0	F: .	G: .	H: i	I: .

> O=C(CCS(=O)(=O)c1ccc(Br)cc1)N1CCN(c2ccccc2F)CC1
  A: 0.7	B: .	C: .	D: .	E: 0.3	F: -20	G: 0.79	H: .	I: -10

> CC1CCCN(CC(O)COCC2COc3ccccc3O2)C1 (stereo unspecified)
  A: 4.5	B: .	C: .	D: .	E: 2.0	F: .	G: 0.73	H: .	I: -5

> CCC(Sc1nnc(-c2ccco2)n1C)C(=O)Nc1nnc(C)s1 (stereo unspecified)
  A: 6.7	B: 2	C: 9	D: 0.5	E: 0.6	F: 2	G: 0.71	H: i	I: -18

> CCOc1cc(Cl)c(NC(=O)c2ccco2)cc1OCC
  A: -6.1	B: .	C: .	D: .	E: -2.3	F: -23	G: 0.61	H: .	I: -4

> Cc1nn(CC(=O)c2ccccc2)c(=O)c2nn(-c3ccccc3F)c(C)c12
  A: 0.8	B: -18	C: -15	D: -19	E: -0.2	F: 0	G: 0.61	H: i	I: -1

> N#CC1(NC(=O)CSc2nnc(Nc3ccccc3F)s2)CCCC1
  A: 0.1	B: -4	C: -1	D: -1.5	E: -3.4	F: 2	G: 0.65	H: i	I: 5

> COC(=O)Cc1ccc(NC(=S)N2CCN(CCO)CC2)cc1
  A: 3.2	B: 11	C: 9	D: 1.1	E: 0.9	F: -17	G: 0.71	H: i	I: 11

> CCCCNc1c(-c2ccc(-c3cccc(Cl)c3)cc2)nc2ccc(Cl)cn12
  A: i	B: -26	C: -39	D: -24	E: 11	F: -6	G: 0.73	H: i	I: 11

> O=C1c2ccccc2C(=O)N1Cc1nn2c(-c3ccc(Cl)cc3)nnc2s1
  A: 0.6	B: .	C: .	D: .	E: -1.3	F: 0	G: 0.7	H: .	I: -2

> Clc1nc(-c2cccnc2)nc2scc(-c3ccccc3)c12
  A: 0.2	B: -43	C: -66	D: -1.2	E: 3.1	F: 97*	G: 0.72	H: i	I: 13

> O=C(c1cccc(S(=O)(=O)N2CCOCC2)c1)N1CCCC1
  A: 0.9	B: .	C: .	D: .	E: 0.9	F: 2	G: 0.7	H: .	I: 7

> COc1cc(NC(C)CCCN)c2nc(C)ccc2c1Oc1ccc(F)cc1 (stereo unspecified)
  A: .	B: 81	C: 7	D: 50	E: 20	F: .	G: .	H: i	I: .

> CCCN1CCC(C)(C(=O)Nc2ccccc2Oc2ccccc2)C1 (stereo unspecified)
  A: .	B: 14	C: 29	D: -2.3	E: 0.2	F: .	G: .	H: i	I: .

> O=C(NCC1CCN(Cc2ccc(F)cc2)CC1)Nc1cc(F)ccc1F
  A: 4.2	B: 10	C: 11	D: -1.2	E: 0.3	F: -8	G: 0.66	H: i	I: 5

> CCCC[n+]1ccn(-c2nc3ccccc3nc2[N-]S(=O)(=O)c2ccc(Cl)cc2)c1
  A: -119	B: 12	C: -4	D: 2.1	E: 1.9	F: .	G: 0.63	H: i	I: 0

> COc1ccc(N2CCC(CNC(=O)Nc3ccc(OC)cc3OC)C2)cc1 (stereo unspecified)
  A: 4.6	B: .	C: .	D: .	E: 7.3	F: 85*	G: 0.71	H: .	I: 4

> CCOC(=O)Cc1cc(=O)[nH]c(/N=C(\N)Nc2ccc(C)cc2C)n1
  A: .	B: .	C: .	D: .	E: 2.6	F: -7	G: .	H: .	I: 7

> Cc1ccnc(NS(=O)(=O)c2ccc(Oc3ccccc3)cc2)c1
  A: -9.8	B: .	C: .	D: .	E: -4.0	F: -10	G: 0.68	H: .	I: -8

> CC1(C)NC(=O)N(CCOCCOc2cccc(Oc3ccccc3)c2)C1=O
  A: 4.7	B: .	C: .	D: .	E: 1.0	F: -3	G: 0.66	H: .	I: -19

> CCC/C=N/Nc1nc2ccccc2s1
  A: .	B: -8	C: 0	D: -2.4	E: 0.6	F: -1	G: .	H: i	I: -6

> O=C(O)CSCC(=O)Nc1cccc2ccccc12
  A: 3.9	B: 4	C: 1	D: 0.6	E: -0.3	F: -10	G: 0.67	H: i	I: 3

> Cc1c(CCOC(=O)c2cc([N+](=O)[O-])cc([N+](=O)[O-])c2)sc[n+]1CCCCS(=O)(=O)[O-]
  A: -0.6	B: -5	C: -1	D: -8.8	E: -0.8	F: -30	G: 0.61	H: i	I: 1

> Cc1ccccc1NC(=S)c1ccc2ccccc2n1
  A: 1.3	B: 13	C: 10	D: 0.5	E: 3.4	F: -3	G: 0.68	H: i	I: -2

> Cc1ccc(S(=O)(=O)N2CCC(C(=O)Nc3cccnc3)CC2)cc1
  A: 0.8	B: -6	C: -3	D: -4.0	E: 1.5	F: -4	G: 0.71	H: i	I: -3

> O=C(Nc1ccc(Oc2ccc(NC(=O)c3ccco3)c(NC(=O)c3ccco3)c2)cc1)c1ccco1
  A: 3.6	B: -11	C: -10	D: 4.6	E: -2.1	F: -5	G: 0.71	H: i	I: -9

> O=C(CCSc1nc2ccccc2o1)N1CCOCC1
  A: 4.7	B: .	C: .	D: .	E: 2.7	F: ?	G: 0.69	H: .	I: -79

> CC(C)(C)OC(=O)N1CCCN(C(=O)Nc2ccc(OC(F)(F)F)cc2)CC1
  A: 1.0	B: 4	C: 10	D: -0.5	E: -1.7	F: -5	G: 0.67	H: i	I: 2

> NC(=O)N1c2ccccc2C=Cc2ccccc21
  A: 1.3&3.1	B: -1&-2	C: 10&1	D: 0.8&-0.3	E: 2.9&-1.7	F: -7&-3	G: 0.68&0.66	H: i	I: 3&1

> Cc1noc(C)c1COc1ccc(C(=O)Nc2cccnc2)cc1
  A: -0.8	B: -7	C: 7	D: 0.5	E: 14	F: .	G: 0.7	H: i	I: 2

> CC(C)(C)NC(=O)CN(C(=O)CS(=O)CC(=O)Nc1ccc(F)cc1)c1ccccc1 (stereo unspecified)
  A: 2.6	B: .	C: .	D: .	E: 1.3	F: -6	G: 0.71	H: .	I: -6

> COC(=O)CNC(c1ccccc1)c1cc(C)ccc1NC(=O)c1cccc(Cl)c1 (stereo unspecified)
  A: .	B: .	C: .	D: .	E: -2.1	F: -16	G: .	H: .	I: -1

> COc1ccc(CN(C)C(=O)/C=C/c2ccc(S(=O)(=O)N3CCOCC3)cc2)cc1F
  A: 0.6	B: -2	C: -3	D: -0.9	E: -3.6	F: .	G: 0.69	H: .	I: 11

An excerpt, so the mix of outcomes need not match the whole.
